Screens as filed in PubChem.
CDC25B-CDK2 inh – primary biochemical HTRF screen for blockers of M-phase inducer phosphatase 2 binding to CDK2/cyclin A | HTRF CDC25B-CDK2/CyclinA binding, anti-His/anti-Flag; stronger effect = higher value | z-score (test concentration not listed) | actives 0.72% (n = 94,000) | AID 1259370, 2018;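 note: score is relative to mean and SD of negative controls; strong numbers were not always called active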
HIV TAR-Tat – TAR RNA-Tat peptide displacers, HIV-1, primary screen, biochemical, FRET, FAM/TAMRA-labeled Tat; HIV-1 TAR RNA, Tat peptide displacement FRET; stronger effect = higher value; actives 0.6% (n = 100,000); z-score (test concentration not listed);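 note: score is relative to mean and SD of negative controls; some compounds called inactive have numbers as strong as hits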
Numbers without * were called inactive.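 Rule for the calls: active = z-score from 3 up in half or more of its runs; inactive = the rest.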

The opening 4 records (preview)
`CC(=O)N1c2ccc(S(=O)(=O)N(C)CC(=O)NC3CCC(C)CC3)cc2CC1C` (stereo not drawn) gave HIV TAR-Tat 0.24.
Cn1ncc2c(NCc3ccc(Cl)cc3)nc(NC3CCCC3)nc21 was read as HIV TAR-Tat 1.66.
Screening CCc1nc(S(C)(=O)=O)c(C#N)cc1C returned CDC25B-CDK2 inh -0.7 and HIV TAR-Tat 1.92.
Cc1nc(C)c(CCNS(=O)(=O)c2ccc(F)cc2)s1 was read as HIV TAR-Tat 1.02.

The listing, repeating the preview:
`CC(=O)N1c2ccc(S(=O)(=O)N(C)CC(=O)NC3CCC(C)CC3)cc2CC1C` (stereo not drawn) gave HIV TAR-Tat 0.24.
Cn1ncc2c(NCc3ccc(Cl)cc3)nc(NC3CCCC3)nc21 was read as HIV TAR-Tat 1.66.
Screening CCc1nc(S(C)(=O)=O)c(C#N)cc1C returned CDC25B-CDK2 inh -0.7 and HIV TAR-Tat 1.92.
Cc1nc(C)c(CCNS(=O)(=O)c2ccc(F)cc2)s1 was read as HIV TAR-Tat 1.02.
For COC(=O)c1cc2sc(Cl)cc2n1Cc1cc(=O)n2ccccc2n1 the results were CDC25B-CDK2 inh -2.39.
O=C(Cn1ccc2cc(S(=O)(=O)N3CCCC3)ccc21)NC1CCCc2ccccc21 (stereo not drawn) was read as HIV TAR-Tat 0.54.
`Cc1nc(-c2ccc(S(=O)(=O)Nc3ccc(N4CCC(C)CC4)cc3)cc2)co1` gave HIV TAR-Tat 0.12.
For Cn1c2ccccc2c2c(C(=O)N3CCN(C(=O)c4ccco4)CC3)cn(C3CCCCC3)c(=O)c21 the results were CDC25B-CDK2 inh -0.6 and HIV TAR-Tat 0.6.
Screening CCC(C)(C)C1CCc2sc3ncnc(N4CCOCC4)c3c2C1 (stereo not drawn) returned CDC25B-CDK2 inh -0.87.
`CCCNC(=O)CCc1c(C)nc2c(c(C)nn2C(C)(C)C)c1C` gave CDC25B-CDK2 inh -2.4 and HIV TAR-Tat 2.86.
For Cc1ccc(C(=O)COC(=O)c2cc(Cl)ccc2O)cc1C the results were CDC25B-CDK2 inh -0.48 and HIV TAR-Tat 1.03.
For Cc1nnc(NC(=O)c2sc(C)nc2C)s1 the results were CDC25B-CDK2 inh 1.26 and HIV TAR-Tat 1.78.
CCOC(=O)c1nc(Nc2ccc(Cl)cc2C)c2c(C)noc2n1 was read as HIV TAR-Tat 0.72.
COc1cnc(CSc2nnc(C)s2)cc1OCC(N)=O was read as HIV TAR-Tat 0.41.
For COc1ccc(/C(=C/C(=O)c2ccccc2)CC(=O)c2ccccc2)cc1 the results were CDC25B-CDK2 inh -1.21.
`COc1ccccc1C(=O)NCCN=C1NS(=O)(=O)c2ccccc21` gave CDC25B-CDK2 inh -0.77.
Screening O=C1CSc2ccc(S(=O)(=O)NCc3ccc4c(c3)OCO4)cc2N1 returned HIV TAR-Tat 2.17.
`O=S(=O)(NCCc1csc2nc(-c3ccc(Cl)cc3)nn12)c1ccc(Cl)cc1` gave HIV TAR-Tat 0.82.
For Cc1ccc2c(=O)cc(C(=O)NCc3ccc4c(c3)OCO4)oc2c1C the results were CDC25B-CDK2 inh -1.26 and HIV TAR-Tat 0.9.
`CSc1ncc(Cl)c(C(=O)Oc2ccccc2Cl)n1` gave CDC25B-CDK2 inh -1.53 and HIV TAR-Tat 3.87.
Screening O=C(CSc1ccc(Cl)cc1)OCc1cc(=O)n2nc(C3CC3)sc2n1 returned HIV TAR-Tat 0.03.
Cn1c(O)c(C2=Nc3ccccc3SC(c3ccncc3)C2)c(=O)n(C)c1=O (stereo not drawn) was read as CDC25B-CDK2 inh 1.46 and HIV TAR-Tat 1.03.
For CCCN1CCN(S(=O)(=O)c2ccc3c(c2)NC(=O)C(C)S3)CC1 (stereo not drawn) the results were HIV TAR-Tat 1.63.
For COc1ccc(C2Nc3ccc4ncccc4c3C3=C2C(=O)CC(C)(C)C3)cc1 (stereo not drawn) the results were CDC25B-CDK2 inh -1.71 and HIV TAR-Tat 0.82.
O=C(Nc1ccccn1)C1CCN(S(=O)(=O)c2cccc3nonc23)CC1 was read as CDC25B-CDK2 inh -0.72.
For O=C(CCSCc1c(F)cccc1Cl)N1CCN(c2ncc(C(F)(F)F)cc2Cl)CC1 the results were CDC25B-CDK2 inh -2.11.
For O=C(Nc1ccccc1F)N1CCC2(CC1)Nc1ccccc1-n1cccc12 the results were HIV TAR-Tat 0.2.
O=S(=O)(NCC(c1ccccc1)N1CCN(c2ncccn2)CC1)c1ccccc1 (stereo not drawn) was read as CDC25B-CDK2 inh -7.77 and HIV TAR-Tat -0.82.
`Cn1c(=O)[nH]c(=O)c2c1nc(N1CCOCC1)n2Cc1ccc(F)cc1` gave CDC25B-CDK2 inh -1.82.
CC1=NN(C(=O)C2c3ccccc3Oc3ccccc32)C(O)(C(F)(F)F)C1 (stereo not drawn) was read as CDC25B-CDK2 inh 0.62.
For CC1Cc2cc(S(=O)(=O)NCc3ccc4c(c3)OCO4)ccc2N1C(=O)C1CCC1 (stereo not drawn) the results were HIV TAR-Tat 0.04.
For CCN1CCN(C(c2ccc(F)cc2)c2sc3nc(C)nn3c2O)CC1 (stereo not drawn) the results were CDC25B-CDK2 inh -0.42.
`COc1ccccc1Cn1cc(C(=O)c2ccccc2)c(=O)c2cc3c(cc21)OCCO3` gave CDC25B-CDK2 inh -1.21 and HIV TAR-Tat -0.99.
COc1ccc(C2NCCc3c2[nH]c2ccc(Cl)cc32)cc1 (stereo not drawn) was read as CDC25B-CDK2 inh -2.63 and HIV TAR-Tat 0.98.
Screening Cc1cc(C)cc(Nc2c(C)c(C)nc3ncnn23)c1 returned HIV TAR-Tat 0.62.
Cn1nc(C(=O)N2CCCCC2)c2c1-c1ccccc1OC2 was read as CDC25B-CDK2 inh -1.27 and HIV TAR-Tat 1.19.
Screening CC1Cc2cc(S(=O)(=O)N3CCCCC3)ccc2N1C(=O)C1CCC1 (stereo not drawn) returned HIV TAR-Tat -0.06.
N#Cc1ccc(N/N=C/c2ccc(Cl)cc2)c(Cl)c1 was read as CDC25B-CDK2 inh -1.58.
COc1cc(O)c(C(=O)c2ccccc2)cc1O was read as HIV TAR-Tat -0.69.
Screening Cc1cc(N2CCOCC2)nc(N2CCN(C(=O)Nc3ccccc3)CC2)n1 returned HIV TAR-Tat 0.73.
For CSc1cccc(NC(=O)CSc2nc3c(oc4ccccc43)c(=O)n2Cc2ccco2)c1 the results were CDC25B-CDK2 inh -2.35 and HIV TAR-Tat 0.11.
`CC1CC(=O)C2=C(C1)Nc1nc(C(F)(F)F)nn1C2c1ccccc1` (stereo not drawn) gave CDC25B-CDK2 inh -0.27 and HIV TAR-Tat 0.18.
For Cc1ccc(N2CC(c3n[nH]c(=S)o3)CC2=O)cc1 (stereo not drawn) the results were CDC25B-CDK2 inh -1.22 and HIV TAR-Tat 1.18.
Cc1ccc2oc(=O)c3cnn(CC(=O)N4CCc5ccccc54)c3c2c1 was read as CDC25B-CDK2 inh -1.34 and HIV TAR-Tat 1.95.
For O=C(Nc1cccc(Cl)c1)c1nn(-c2ccccc2)ccc1=O the results were CDC25B-CDK2 inh -0.41 and HIV TAR-Tat 0.04.
For O=C(Cn1cnc(S(=O)(=O)N2CCOCC2)c1)N1CCc2ccccc21 the results were HIV TAR-Tat -0.69.
Screening O=C(Nc1ccc2snnc2c1)N1CCN(c2ccccc2)CC1 returned CDC25B-CDK2 inh -0.04 and HIV TAR-Tat 1.61.
CCc1ccc(CN2CCc3nc(N4CCCC4)ncc3C2)cc1 was read as HIV TAR-Tat 2.14.
`CCOc1ccc(/C=C/c2nc(C#N)c(NCCCn3ccnc3)o2)cc1` gave CDC25B-CDK2 inh -1.79 and HIV TAR-Tat 2.86.
O=C1c2oc3ccc(F)cc3c(=O)c2C(c2ccccn2)N1CCCN1CCOCC1 (stereo not drawn) was read as HIV TAR-Tat 0.59.
`COc1ccc(-c2noc(CSc3nnc(C)n3-c3ccc(F)cc3)n2)cc1` gave CDC25B-CDK2 inh -0.28 and HIV TAR-Tat 1.88.
Screening Cc1c(Br)c([N+](=O)[O-])nn1CC(=O)Nc1c(C)n(C)n(-c2ccccc2)c1=O returned HIV TAR-Tat 1.76.
For CCCNS(=O)(=O)c1ccc2[nH]c3c(c2c1)CCCC3 the results were HIV TAR-Tat -1.17.
For O=c1c2c(c(-c3ccccc3)nn1Cc1ccccc1)CCCC2 the results were CDC25B-CDK2 inh 1.35 and HIV TAR-Tat 2.53.
Cc1ccc(-c2cc(C(=O)N(Cc3ccco3)Cc3sccc3C)no2)cc1C was read as CDC25B-CDK2 inh 0.32 and HIV TAR-Tat 1.07.
For O=C(Nc1ccc(Cl)cc1F)c1cnc2sc(N3CCOCC3)nn2c1=O the results were CDC25B-CDK2 inh -0.07 and HIV TAR-Tat 0.02.
For O=C(c1ccc(S(=O)(=O)N2CCN(c3ccccc3)CC2)s1)N1CCCC1 the results were HIV TAR-Tat 1.68.
Screening COc1cccc2c1OC1(CCCCC1)N1N=C(c3ccccc3)CC21 (stereo not drawn) returned CDC25B-CDK2 inh -1.7.
Screening CCCCN(Cc1ccco1)C(=O)Cn1nc(Cc2ccncc2)c2ccccc2c1=O returned CDC25B-CDK2 inh 0.91 and HIV TAR-Tat 1.22.
For N#CC1=C(N)Oc2nc(-c3ccccc3)[nH]c2C1c1cccnc1 (stereo not drawn) the results were CDC25B-CDK2 inh -1.43.
For O=C(CCCn1c(=O)c2cccn2c2ccccc21)N1CCN(Cc2ccc3c(c2)OCO3)CC1 the results were HIV TAR-Tat 1.27.
Screening COC(=O)c1sccc1S(=O)(=O)Nc1ccc(F)c(F)c1 returned HIV TAR-Tat 0.96.
`CC1CCC(NS(=O)(=O)c2ccc(-c3ccc(=O)[nH]n3)s2)CC1` (stereo not drawn) gave HIV TAR-Tat 0.23.
For CC1CC(C)CN(c2cc(NCCN(C)C)c3c4c(onc24)-c2ccccc2C3=O)C1 (stereo not drawn) the results were CDC25B-CDK2 inh -1.75 and HIV TAR-Tat -0.79.
For O=C(O)CCC(=O)N1N=C(c2c(-c3ccccc3)c3cc(Cl)ccc3[nH]c2=O)CC1c1cccc([N+](=O)[O-])c1 (stereo not drawn) the results were CDC25B-CDK2 inh -1.24.
`Cc1ccccc1-c1noc(-c2c(-c3ccccc3Cl)noc2C)n1` gave HIV TAR-Tat 0.23.
For C=CCOc1ccc(C2c3c(oc4ccc(C)cc4c3=O)C(=O)N2CCOC)cc1OC (stereo not drawn) the results were CDC25B-CDK2 inh -3.3 and HIV TAR-Tat 0.4.
CC(C)Sc1nnc(Cn2c(=O)sc3ccccc32)n1-c1ccccc1 was read as CDC25B-CDK2 inh -0.15.
Screening NC(=O)C1CCN(C(=O)c2ccc3c(c2)sc2nc(-c4ccccc4)cn23)CC1 returned HIV TAR-Tat 1.85.
Screening COc1ccc(-c2cc(C(F)F)nc(-n3nc(C)cc3C)n2)cc1 returned CDC25B-CDK2 inh -0.16 and HIV TAR-Tat 0.14.
`Cc1nc(N2CCCC2)ncc1C(=O)NC1CCCC1` gave HIV TAR-Tat 1.55.
`CSc1ccc(CCNC(=O)c2ccc(CS(=O)c3ccc(Br)cc3)o2)cc1` (stereo not drawn) gave HIV TAR-Tat 1.79.

The closing 5 records of the part before open the next one.
CC(C)Sc1nnc(Cn2c(=O)sc3ccccc32)n1-c1ccccc1 was read as CDC25B-CDK2 inh -0.15.
Screening NC(=O)C1CCN(C(=O)c2ccc3c(c2)sc2nc(-c4ccccc4)cn23)CC1 returned HIV TAR-Tat 1.85.
Screening COc1ccc(-c2cc(C(F)F)nc(-n3nc(C)cc3C)n2)cc1 returned CDC25B-CDK2 inh -0.16 and HIV TAR-Tat 0.14.
`Cc1nc(N2CCCC2)ncc1C(=O)NC1CCCC1` gave HIV TAR-Tat 1.55.
`CSc1ccc(CCNC(=O)c2ccc(CS(=O)c3ccc(Br)cc3)o2)cc1` (stereo not drawn) gave HIV TAR-Tat 1.79.
For CC(C)CNCC1OCc2ccccc2CO1 the results were CDC25B-CDK2 inh -1.11.
Screening Cc1nn(CC(=O)NC2CCCC(C)C2C)c(=O)c2cc3occc3n12 (stereo not drawn) returned CDC25B-CDK2 inh -2.17 and HIV TAR-Tat 2.19.
`CCC(C(=O)NCC1CCCN1CC)n1nc(C)n2c(cc3sccc32)c1=O` (stereo not drawn) gave CDC25B-CDK2 inh 0.13.
For CCN1CCc2c(sc(-n3cccc3)c2CNC(=O)Nc2ccc3c(c2)OCCO3)C1 the results were HIV TAR-Tat -6.93.
`Cc1nc(-c2csc(S(=O)(=O)N3CCCC3)c2)no1` gave HIV TAR-Tat 1.02.
`COc1ccc(C(=O)Nc2cnc3sc4c(n3c2=O)CCCC4)cc1` gave CDC25B-CDK2 inh 0 and HIV TAR-Tat 1.87.
For O=C(C1CCC(Cn2c(=O)[nH]c3ccsc3c2=O)CC1)N1CCCC1 (stereo not drawn) the results were HIV TAR-Tat 0.12.
`COC(=O)CN1C(C(=O)c2ccccc2)=C(OC(=O)Cc2ccccc2)c2ccccc2S1(=O)=O` gave CDC25B-CDK2 inh -0.92 and HIV TAR-Tat 0.84.
Screening CCCCCCCCCCCCC/C=C/[C@@H](O)[C@H](CO)NC(=O)CCCCC returned HIV TAR-Tat -1.19.
Screening O=C(Nc1cnn(Cc2ccccc2)c1)c1cnn2c(C(F)F)cc(-c3ccccc3)nc12 returned CDC25B-CDK2 inh -1.06 and HIV TAR-Tat 0.56.
`COC(=O)CSc1nc2ccccc2nc1SCC(=O)OC` gave CDC25B-CDK2 inh -1.17 and HIV TAR-Tat 2.31.
For C=CCNC(=O)C1CC(c2ccccc2F)=NO1 (stereo not drawn) the results were CDC25B-CDK2 inh -1.8 and HIV TAR-Tat 2.34.
Screening O=C(Nc1cccc2c1CCCC2)NC1COc2ccccc2C1 (stereo not drawn) returned HIV TAR-Tat 1.58.
`Cc1ccc2ncnc(NCCCN3CCOCC3)c2c1` gave CDC25B-CDK2 inh -1.68.
